Env fusion inh = inhibitors of HIV-1 Env-driven cell-cell fusion, primary screen, HeLa-JRFL effector, CEM21 target cells, luciferase; inhibition, % at 12.3 µM; 1.1% of 360,000 active;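 active = mean replicate inhibition score of at least 50 and every replicate individually at or above 50; inconclusive = only one of the two criteria met; inactive = mean below 50 and not all replicates reaching 50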;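 also: 0% = plate neutral controls and 100% = maraviroc near 300 nM; one replicate is shown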
Rce1 inh = yeast Rce1p protease inhibitors, primary screen, biochemical, fluorescence, cell-free homogeneous; calls only; CAAX prenyl protease 2 (Saccharomyces cerevisiae (strain ATCC 204508 / S288c)), Q03530; 0.27% of 290,000 active; AID 2563, 2010; yeast membranes, quenched prenylated peptide cleavage fluorescence;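 active = fall in fluorescence gain of 50% or more versus controls, with final raw signal at or below 3038400; inconclusive = same 50% fall but final raw signal above 3038400; inactive = fall in fluorescence gain under 50%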;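 also: plate controls were neutral control wells for no effect and wells lacking membranes for full effect; tested at 10 µM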
CSC inhib = cancer stem cell viability inhibitors, primary screen, luminescence. cancer stem cell-like cells viability. inhibition, % at 7.5 µM. 1.1% of 300,000 active;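 active = mean at 75% or more and at least half the replicates too; inconclusive = mean and replicates disagree; tested in HMLE shEcad cells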;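 also: 0% = median of negative and 100% = median of positive control wells; the first replicate is given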
eIF4H FP inh = human eIF4H binding inhibitors, primary screen, translation initiation inhibitor project, biochemical, uHTS, fluorescence polarization; inhibition, % at 35 µM; Eukaryotic translation initiation factor 4H (Homo sapiens), Q15056; eIF4H fluorescence polarization binding assay; 0.94% of 290,000 active; AID 2012, 2009;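 active = 50% or more with normal probe brightness, or confirmed in later tests; inconclusive = above 50% with abnormal brightness, or retests that disagree; inactive = below 50% or failed in later tests; about a fifth of its hits are not listed in these tables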;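 also: calls also rest on retests at 20 µM and on dose response follow-up; 0% = protein and probe with vehicle and 100% = probe without protein; strong numbers were not always called active; many hits fall short of the cut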
UUG fidelity = modulators of yeast start codon fidelity, primary screen, whole organism, S. cerevisiae, single point, plate reader; S. cerevisiae UUG-firefly luciferase reporter, luminescence/redox ratio; activity score, % at 18.7 µM; 0.13% of 350,000 active; AID 602363, 2012;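 active = replicate mean at a twofold rise or more, about +100% in these data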;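 also: firefly luciferase made from a UUG start codon reports start codon fidelity; reporter light over untreated wells divided by growth signal over untreated wells; some hits fall short of that in this replicate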
PABP FP inh = PABP poly(A) RNA binding inhibitors, primary screen, biochemical, fluorescence polarization, uHTS; Polyadenylate-binding protein 1 (Homo sapiens), P11940; inhibition, % at 35 µM; 1% of 290,000 active;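 active = 50% or more with normal probe brightness, or confirmed in later tests; inconclusive = above 50% with abnormal brightness, or retests that disagree; inactive = below 50% or failed in later tests; about a fifth of its hits are not listed in these tables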;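 also: calls also rest on retests at 20 µM and on dose response follow-up; controls were probe without protein and protein plus probe with vehicle; some compounds called inactive have numbers as strong as hits; many hits fall short of the cut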
Target sequence (P11940 whole entry, looked up): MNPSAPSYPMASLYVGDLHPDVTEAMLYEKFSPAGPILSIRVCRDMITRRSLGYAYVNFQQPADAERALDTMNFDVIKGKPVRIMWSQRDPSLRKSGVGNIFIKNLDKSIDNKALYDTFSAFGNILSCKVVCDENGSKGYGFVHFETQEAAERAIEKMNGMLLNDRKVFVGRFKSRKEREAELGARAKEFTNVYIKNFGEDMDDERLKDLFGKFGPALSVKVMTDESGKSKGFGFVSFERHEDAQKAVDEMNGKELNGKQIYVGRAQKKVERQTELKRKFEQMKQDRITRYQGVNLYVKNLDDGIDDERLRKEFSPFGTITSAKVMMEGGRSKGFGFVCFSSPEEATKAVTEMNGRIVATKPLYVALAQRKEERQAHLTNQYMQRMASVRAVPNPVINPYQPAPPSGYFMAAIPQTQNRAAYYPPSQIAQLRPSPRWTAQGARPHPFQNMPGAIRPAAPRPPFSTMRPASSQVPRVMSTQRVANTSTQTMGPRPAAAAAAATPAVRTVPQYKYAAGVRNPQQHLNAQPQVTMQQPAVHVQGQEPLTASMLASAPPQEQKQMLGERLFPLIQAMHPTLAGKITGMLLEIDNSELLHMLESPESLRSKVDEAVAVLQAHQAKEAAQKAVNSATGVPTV
MT1-MMP act inh = blockers of MT1-MMP proenzyme processing, primary screen, HT1080 RFP-PRO-GFP cells, GFP/RFP fluorescence; Matrix metalloproteinase-14 (Homo sapiens), P50281; GFP/RFP ratio fluorescence, overnight; percent of plate control window, DMSO zero; GFP/RFP ratio change, % at 20 µM; 0.061% of 360,000 active; AID 651647, 2012;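 active = GFP/RFP ratio change of at least 30% with cell ATP level not reduced by more than half and red fluorescence within 50% of control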; also: strong numbers were not always called active
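Test system: HT1080 RFP-PRO-GFP cells; Benchmarks: DMSO and RFP-L50D-GFP cell wells; Timing: cells overnight before dosing, compound overnight, 37 °C, 5% CO2; Compound: one 20 µM compound dose with 1% DMSO; Read-out: GFP/RFP fluorescence ratio.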
MT1-MMP act inh RFP = recorded beside MT1-MMP act inh, whose call it bears; RFP signal change, %; measured here: RFP expression control read;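 0 = vehicle wells; hits needed this value within 50% of zero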
* = called active by the depositor; i = inactive; ? = inconclusive; nt = no result given. The list is partial; the hit share may differ from the screen's.

SMILES	Env fusion inh	Rce1 inh	CSC inhib	eIF4H FP inh	UUG fidelity	PABP FP inh	MT1-MMP act inh	MT1-MMP act inh RFP
CN1/C(=c2/s/c(=C3/C(=O)N(c4ccccc4)NC3=Nc3ccccc3)n(C)c2=O)C(C)(C)c2ccccc21	nt	i	24	76*	8	79*	-186	-7
Cc1ccc(Nc2ccccc2N)cc1	-7	i	43	12	-19	18	-12	-2
COc1ccccc1C(c1nnnn1Cc1ccccc1)N1CCC(C(N)=O)CC1 (stereo not drawn)	-75	i	-7	-12	6	-9	0	-3
COCCCN1C(=O)C(=O)/C(=C(/O)c2ccccc2)C1c1ccc2c(c1)OCO2 (stereo not drawn)	nt	i	nt	4	nt	19	1	5
CC(C)Cc1nccs1	nt	nt	-5	nt	-12	nt	-1	0
CCOC(=O)c1cc2c(C)n(-c3ccc(OCC)cc3)c(C)c2cc(C(=O)OCC)c1=O	8	i	-1	10	nt	2	-6	2
O=C(CCOc1ccccc1)Nc1ccnn1C1CCN(Cc2ccccc2)CC1	-11	i	5	-4	-2	-11	-3	1
CCN(c1ccccc1)S(=O)(=O)c1cc2c(cc1C)NC(=O)CO2	2	i	2	6	-12	-10	2	2
N#Cc1ccc(NC(=S)/N=C(\N)c2ccccc2)cc1	-86	nt	nt	nt	-21	nt	4	-19
O=C(COC(=O)c1c2c(nc3ccccc13)CCCC2)c1ccc(Br)s1	8	i	0	-9	nt	-12	-2	-4
O=C(NCCc1ccc2c(c1)OCCO2)c1cccc(F)c1	2	i	-2	16	nt	4	-1	-10
COc1ccccc1Nc1nc(-c2cccc([N+](=O)[O-])c2)nc2ccccc12	26	i	33	-12	-19	-5	0	-2

Some of the entries so far, with values under each structure.
Sequence of screens: Env fusion inh	Rce1 inh	CSC inhib	eIF4H FP inh	UUG fidelity	PABP FP inh	MT1-MMP act inh	MT1-MMP act inh RFP
- CCN(c1ccccc1)S(=O)(=O)c1cc2c(cc1C)NC(=O)CO2
 : 2	i	2	6	-12	-10	2	2
- CCOC(=O)c1cc2c(C)n(-c3ccc(OCC)cc3)c(C)c2cc(C(=O)OCC)c1=O
 : 8	i	-1	10	nt	2	-6	2
- Cc1ccc(Nc2ccccc2N)cc1
 : -7	i	43	12	-19	18	-12	-2

The list goes on:
SMILES	Env fusion inh	Rce1 inh	CSC inhib	eIF4H FP inh	UUG fidelity	PABP FP inh	MT1-MMP act inh	MT1-MMP act inh RFP
COc1ccc(CNc2nc3nc(C)c(Cl)c(=O)n3[nH]2)cc1OC	-42	i	3	2	-18	-3	4	3
CC(C)Oc1ccc(CN2CCC2(C)C(=O)NCc2ccc(C(F)(F)F)cc2)cc1 (stereo not drawn)	22	nt	nt	nt	-14	nt	-5	-10
CC1=NN(c2ccccc2)C(=O)C1C=Nc1ccccc1O (stereo not drawn)	5	i	31	-2	nt	-4	0	1
COc1cccc(/C=N/Nc2ncnc3scc(-c4ccccc4)c23)c1O	41	i	111*	11	nt	6	-5	-14
Cc1cccc(NC(=O)c2ccccc2NC(=O)c2ccccc2)n1	-9	i	8	4	nt	1	1	-7
CCc1nnc(SCC(=O)Nc2ccccc2Cl)nc1CC	-6	nt	6	-16	nt	-4	-1	-1
COc1ccc(N/C=C2\C(=O)c3c(sc(C)c3C)N(C)S2(=O)=O)cc1	6	i	-8	-7	-8	-1	1	0
Cc1cccc(C(=O)N(C)c2nnc(-c3ccncc3)s2)c1	14	i	10	nt	-14	nt	-2	-11
CC1(C)CCCC2=C1CC1C(=O)N(Cc3cccnc3)C(=O)C1C2 (stereo not drawn)	-11	i	-14	3	-14	0	-4	6
CCOC(=O)C(NCc1ccc2c(c1)OCO2)(NC(=O)c1ccccc1)C(F)(F)F (stereo not drawn)	-55	i	-3	-3	-6	1	0	1
CN(C1CCCCC1)S(=O)(=O)c1cccc(C(=O)Nc2ccccn2)c1	-44	nt	0	nt	-14	nt	-2	-6
COc1ccc2c(=O)cc(-c3ccncc3)oc2c1OC	15	nt	nt	nt	-24	nt	-15	-10
O=C(Cn1cccc1)NC1CCCCCC1	-119	i	-16	4	4	-5	0	4
CC(C)(C)c1ccc(OCC(=O)Nc2ccncc2)c(Br)c1	-10	i	72	-2	-11	-11	1	-7
O=C(CNC(=O)c1ccccc1Br)N/N=C\c1cc([N+](=O)[O-])cc(Br)c1O	-30	i	27	8	0	13	5	6
CCN1C(=O)[C@@H]2[C@@H](c3ccc(-c4ccc5c(c4)OCO5)c(OC)c3)N3CCCC[C@@]3(C(=O)OC)[C@@H]2C1=O	9	i	4	nt	-4	nt	-4	-9
CCN(CC)c1ccc(NC(=O)CCS(=O)(=O)c2cccc3nsnc23)c(C)c1	10	i	nt	3	nt	1	-2	2
CC(=O)c1sc(N/N=C/c2cccc(O)c2)nc1C	-56	i	-16	-9	-21	18	-9	-3
CCCN1CCC(=O)N([C@H](CSc2ccc(OC)cc2)c2ccccc2)CC1	?	i	6	13	-14	8	-4	1
CC(CNC(=O)c1cccc(Br)c1)n1cncn1 (stereo not drawn)	-25	i	-10	9	-4	3	0	0
O=C(CCC(=O)N1CCCC(Nc2ccccc2)C1)c1ccc(F)cc1 (stereo not drawn)	-8	i	2	-17	-5	6	-1	-4
CC(=O)N1CCOc2ccc(S(=O)(=O)N3CCC(C(=O)Nc4cc(C)cc(C)c4)CC3)cc21	0	i	-13	-1	-16	8	4	-7
CCOC(=O)N1CCN(C(=O)C(=O)c2cn(CC(=O)N3CCCCCC3)c3ccccc23)CC1	13	i	-3	15	-12	8	-4	5
O=C(ONC(=O)C1CCCCC1C(=O)NOC(=O)c1ccccc1)c1ccccc1 (stereo not drawn)	-12	nt	nt	nt	-17	nt	-2	4
Nc1ccc(S(=O)(=O)C(F)(F)F)cc1N	14	i	15	-6	-14	-19	2	1
CCCCn1c(N)c(N(CCC(C)C)C(=O)C2CC(=O)N(c3ccccc3OCC)C2)c(=O)[nH]c1=O (stereo not drawn)	11	i	-13	-4	-9	10	-3	3
O=C(CC1NC(=O)NC1=O)Nc1ccc(Cl)cc1 (stereo not drawn)	-56	i	3	1	-7	-14	4	12
O=C(COC(=O)c1cccc(O)c1)NC(=O)Cc1ccccc1	24	i	0	-8	-11	12	0	3
COC(=O)c1c(-c2cccs2)csc1NC(=O)CSc1ncnc2sc(C)c(C)c12	-27	i	-9	-6	12	-6	6	-5
Cc1nn(-c2ccccc2)c(C)c1C(=O)Nc1nnc(-c2ccco2)o1	-59	i	15	7	-26	-1	10	6
C=CCNC(=O)c1ccccc1SCc1c(C)noc1C	-6	i	-3	1	-3	-9	2	5
CCOc1ccccc1C(=O)Nc1ccc(S(=O)(=O)Nc2nccc(C)n2)cc1	13	i	1	0	-17	-10	-2	-2
COc1ccccc1C(=O)NC(=O)COc1cc(Cl)ccc1Cl	-19	i	-11	nt	nt	nt	-4	0
Cc1cc(C(F)(F)F)c(C#N)c(SCC(=O)Nc2nc3ccccc3s2)n1	-241	i	25	-5	-19	-6	-95	4
CC1=NN(C(N)=S)C(=O)C1N=Nc1ccc(Cl)cc1 (stereo not drawn)	-450	i	9	3	-11	-13	-1	-6
Cc1ccc(/C=C2\SC(=S)N(CCC(=O)Nc3cccnc3)C2=O)cc1	-2	i	-6	-2	-5	-12	0	-3
CCOc1ccc2nc(NC(=O)CSc3nc(SC)ns3)sc2c1	nt	i	-2	-3	-13	9	3	-2
Cc1ccc(-c2csc3nc(SCC(N)=O)n(Cc4ccccc4)c(=O)c23)cc1	-71	i	25	7	-14	0	-3	-8
CCc1ccc(C(=O)N2CCCN(C)CC2)s1	8	i	-1	4	3	3	2	3
O=C(OCC(=O)N1CCCCC1)c1cccc(NS(=O)(=O)c2ccccc2)c1	nt	i	-9	nt	7	nt	1	-2
C=CCn1c(C)nc2c(cnn2-c2ccccc2)c1=O	-6	i	-13	-18	12	-2	-1	2
COc1ccc(Br)cc1S(=O)(=O)NCc1ccccn1	-8	i	-3	-9	-37	3	-1	4
c1cc(N2CCCC2)ccc1C(c1nnnn1C1CCCCC1)N1CCOCC1 (stereo not drawn)	-44	i	8	-1	2	-1	-7	5
O=C(CCS(=O)(=O)c1cccs1)Nc1ccc(C(=O)NCc2cccs2)cc1	2	i	1	0	-7	0	-1	3
Cc1ccc(CNC(=O)Cn2ccc3cc(S(=O)(=O)N4CCCCCC4)ccc32)cc1	5	i	0	-6	-12	-2	4	-10
CCn1nc(C)cc1C(=O)N1CCCC(N2CCN(Cc3ccc4c(c3)OCO4)CC2)C1 (stereo not drawn)	-1	i	-10	-12	-4	-2	2	-5
Cc1ccc(SC(C)C(=O)Nc2c(C)n(C)n(-c3ccccc3)c2=O)cc1 (stereo not drawn)	-53	i	-6	-9	-2	5	0	0
COc1ccc2oc(C(=O)OCC(=O)N(CCC#N)c3ccccc3)c(C)c2c1	24	i	nt	-5	-9	-5	3	1
COc1cccc(C(=O)NCC(=O)OCC(=O)C(C)(C)C)c1	19	i	-5	6	-12	-6	4	5
CCNC(=S)N(CCc1ccc(S(N)(=O)=O)cc1)C1CC(=O)N(c2ccccc2)C1=O (stereo not drawn)	28	i	22	-12	nt	8	0	-1
CC1=C(C(=O)OC(C)C)C(c2cccc(F)c2)n2ncnc2N1 (stereo not drawn)	-31	i	-10	-1	-13	1	1	0
c1ccc2sc(NC3=NCN(Cc4ccc5c(c4)OCO5)CN3)nc2c1	14	i	21	-5	-10	0	3	-3
COc1cc(SC)ccc1C(=O)NCC1CCCCC1	-11	i	-6	43	-3	-4	-1	-1
CCOc1ccc(S(=O)(=O)NCc2ccc(OC)cc2)c2cccnc12	2	i	-16	-4	-6	9	2	-1
Cc1c(C(=O)N2CCC[C@H]2C(N)=O)oc2c(F)cccc12	-5	i	nt	0	-12	-7	1	3
COc1ccc(C(=O)OCC(=O)c2ccc(F)cc2)cc1OC	22	nt	nt	nt	-15	nt	5	2
CC(C(=O)NCC1CCCCC1)N(C)Cc1ccc(Br)cc1 (stereo not drawn)	1	i	-14	-5	-5	4	-3	-4
CCN(CC)c1ccc(N=Cc2ccc(N(CC)CC)cc2O)cc1	-10	i	11	17	nt	13	43	53
CCOc1ccc(CN2CCN(Cc3ccc(C)o3)CC2CCO)cc1 (stereo not drawn)	17	i	25	4	nt	-1	0	5
Cc1ccc(OCC(=O)Nc2ccc([N+](=O)[O-])cn2)cc1C	nt	i	15	nt	-10	nt	4	1

Remaining list, next part:
SMILES	Env fusion inh	Rce1 inh	CSC inhib	eIF4H FP inh	UUG fidelity	PABP FP inh	MT1-MMP act inh	MT1-MMP act inh RFP
CCCN(CCC)Cc1cc(=O)oc2cc(OC)ccc12	4	nt	nt	nt	-4	nt	1	1
Cc1ccc(NC(=O)CC2COc3ccccc3O2)cc1 (stereo not drawn)	nt	i	7	1	0	-4	4	5
CS(=O)(=O)Nc1ccc(C(=O)Nc2ccccc2Sc2ccccc2)cc1	-4	i	13	-7	4	10	-9	-8
C(=N\n1cnnc1)/c1cccc2ccccc12	-215	i	-14	-5	-15	-8	1	1
O=C(CS(=O)(=O)c1ccc(Cl)c(Cl)c1)Nc1ccccc1Cl	-23	i	-4	-11	-16	4	1	1
O=C(CN1C(=O)COc2ccc(S(=O)(=O)N3CCCC3)cc21)NC1CC1	5	i	14	2	-14	8	3	-1
COc1ccc(C(=O)N2CCCC(CCC(=O)N3CCN(c4ccccn4)CC3)C2)cc1 (stereo not drawn)	-7	i	-3	-6	2	-3	4	-6

Screens from PubChem BioAssay.
